Screens: PubChem BioAssay, Broad Institute
BJeLR viability: lowers viability of BJeLR cells | AID 2275 | BJeLR fibroblasts viability, CellTiterGlo ATP luminescence, 48 h; HRASV12, hTERT and SV40 LT/ST transformed | viability loss activity score, % (no concentration beside the values) | 0.64% of 30,000 active; in the data active means viability loss activity score above about 50%; about a fifth of its hits are not listed in these tables;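 further: higher score means fewer live cells and less ATP luminescence; stock transfer was 50 or 100 nL into about 30 µL; 0% = vehicle wells and 100% = a reference killing control; one replicate is shown; the record names a cut of 85%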
A1 inhib: blocks A1 activity | MEF A1-2A-BIM cells, caspase-Glo luminescence, 3 h; percent of clofoctol signal, DMSO as zero | caspase activation, % (no concentration beside the values) | 0.51% of 21,000 active | AID 2241;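 active means most replicate scores above 10, or exactly half above 10 with mean activity above 10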;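 further: effector caspase 3 and 7 activity cleaving a DEVD luciferin substrate; 50 nL library stock added to about 30 µL; numbers are from one replicate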
Starred values were filed as active, the others as inactive; · = no result given; & = joins results of further samples.

SMILES	BJeLR viability	A1 inhib
CCOC(=O)N1CCC(NC(=O)CCc2nc(C3=CCN(C)CC3)no2)CC1	3.0	·
COc1cc([C@@H]2c3cc4c(cc3[C@H](OC(C)=O)[C@H]3COC(=O)[C@@H]23)OCO4)cc(OC)c1OC	33	0.6
NCC(CC(=O)O)c1ccc(Cl)cc1 (centres undefined)	-3.1	-0.2
O=C(O)c1[nH]c2ccc(Cl)cc2c1CC(=O)N1CCC2(CC1)OCCO2	2.2	·
COc1ccc(C(=O)OC2C[C@H]3CC[C@H](C2)N3C)cc1OC (some centres undefined)	7.3	-0.4
CCC1C2CC[N+]3([O-])CCC4(C(=C2C(=O)OC)Nc2c(OC)cccc24)C13 (centres undefined)	6.1	-0.6
COc1cc(CN2CCN(C(=O)COc3ccccc3)CC2)cc(OC)c1OC	-1.7	0.1
Fc1cccc(NC2=NCCS2)c1	7.6	0.8
O=C(c1cc(S(=O)(=O)N2CCC3(CC2)OCCO3)ccc1F)N1CCC2(CC1)OCCO2	4.7	0.6
O=C(CN1CC(c2ccccc2)CC1=O)Nc1ccccc1 (centres undefined)	-2.2	·
CC1=C2[C@H]3OC(=O)[C@@H](C)[C@@H]3CC[C@@]2(C)C=CC1=O	0.1	0.3
CCS(=O)(=O)N1CCCC(C(=O)N2CCC3(CC2)OCCO3)C1 (centres undefined)	-5.4	-0.7
c1ccc(CSc2nnc(-c3ccccc3)o2)cc1	4.9	-3.3
CC(C)(C)NCC(O)c1cc(Cl)c(N)c(Cl)c1 (centres undefined)	2.5	-0.5
COC[C@H]([C@@H](O)[C@@H](O)C(=O)NCC[C@@H](C)c1nc(/C=C/C[C@H]2OC3(C[C@H](O)[C@H]2C)OC([C@@H](C[C@@H](O)[C@@H](C)[C@@H](O)[C@@H](C)/C=C(C)/C(C)=C/C=C/C(C)=C\C#N)OC)[C@@H](OP(=O)(O)O)C3(C)C)co1)N(C)C (some centres undefined)	69*	-3.0
CC1(C)C2CC(=O)[C@]3(C)C(CC[C@@]4(C)[C@H](c5ccoc5)OC(=O)[C@H]5O[C@]543)[C@@]2(C)C(=O)C[C@H]1O (some centres undefined)	-5.7	-0.1
COc1ccc(C(=O)c2nc3ccccc3n2C(C)C)cc1OC	-12	-0.3
CCN(CC)c1nc2c(C)cccn2c(=O)c1C=C1C(=O)NC(=O)NC1=O	5.8	·
COC1=CC(=O)O[C@@H](CCc2ccccc2)C1	2.4	0.1
Cc1c2ccncc2c(C)c2c1[nH]c1ccccc12	17	-1.1

Compound profiles, as listed above. Values in the order: BJeLR viability	A1 inhib
`Cc1c2ccncc2c(C)c2c1[nH]c1ccccc12` across the screens: 17	-1.1
`CC1(C)C2CC(=O)[C@]3(C)C(CC[C@@]4(C)[C@H](c5ccoc5)OC(=O)[C@H]5O[C@]543)[C@@]2(C)C(=O)C[C@H]1O` (some centres undefined) across the screens: -5.7	-0.1

The listing picks up with the 5 entries that preceded the break.
SMILES	BJeLR viability	A1 inhib
CC1(C)C2CC(=O)[C@]3(C)C(CC[C@@]4(C)[C@H](c5ccoc5)OC(=O)[C@H]5O[C@]543)[C@@]2(C)C(=O)C[C@H]1O (some centres undefined)	-5.7	-0.1
COc1ccc(C(=O)c2nc3ccccc3n2C(C)C)cc1OC	-12	-0.3
CCN(CC)c1nc2c(C)cccn2c(=O)c1C=C1C(=O)NC(=O)NC1=O	5.8	·
COC1=CC(=O)O[C@@H](CCc2ccccc2)C1	2.4	0.1
Cc1c2ccncc2c(C)c2c1[nH]c1ccccc12	17	-1.1
CCC[C@H]1C[C@H]2OC(=O)c3c(cc(OC)c(OC)c3O)[C@H]2O1	1.0	-0.3
CN1C[C@H](CNC(=O)OCc2ccccc2)C[C@@H]2c3cccc4c3c(cn4C)C[C@H]21	-2.9	1.6
CN1CCN(c2ccc3ccccc3n2)CC1	6.0	-0.9
COc1ccc(-c2cc(=O)c3c(OC)c(OC)c(OC)cc3o2)cc1	1.8	-1.1
N#CC(O[C@@H]1O[C@H](CO)[C@@H](O)[C@H](O)[C@H]1O)c1ccccc1 (some centres undefined)	-3.3	-0.1
C[C@@H]1O[C@@H](O[C@@H]2C=C3CC[C@@H]4C(CC[C@]5(C)[C@@H](c6ccc(=O)oc6)CC[C@]45O)[C@@]3(C)CC2)[C@H](O)[C@H](O)[C@H]1O (some centres undefined)	99*	0.1
COc1ccccc1N1CCNCC1	-1.6	-0.3
CC(C)[C@H]1C(=O)O[C@H](C(C)C)C(=O)N(C)[C@@H](C(C)C)C(=O)O[C@H](C(C)C)C(=O)N(C)[C@@H](C(C)C)C(=O)O[C@H](C(C)C)C(=O)N1C	0.9	-0.9
CC(C)N(CCC(C(N)=O)(c1ccccc1)c1ccccn1)C(C)C (centres undefined)	-3.5&-2.3	1.1&0.2
CNC(=O)O/N=C/C(C)(C)SC	-1.4	0.0
CC(C)(C)C(=O)NC1CCSC1=O (centres undefined)	-1.1	·
C/C=C(/C)C(=O)O[C@H]1C(C)=C2[C@H]([C@@H]1OC(=O)CCCCC)[C@@](C)(OC(C)=O)C[C@H](OC(=O)CCC)[C@@]1(O)[C@H]2OC(=O)[C@@]1(C)O	26	1.8
CCN(CC)C(=O)c1ccc2c(c1)C1C3CCC(C3)C1C(c1ccccc1)N2 (centres undefined)	1.2	0.2
C/C=C\C(C)=C\[C@H](C)C(=O)C[C@H](O)CC1CC(=O)NC(=O)C1	-0.9	2.0
CNc1ccccc1C(=O)O	-6.5	0.2
CCCCC/C=C\C/C=C\C/C=C\C/C=C\CCCC(=O)NCc1ccc(O)c(OC)c1	-5.8	0.8
C=C1C(O)(c2ccccc2)C2CC[N+]1(C)CC2 (centres undefined)	0.3	0.4
C[C@@]12N[C@@H](Cc3ccccc31)c1ccccc12	-2.9	0.1
Fc1ccc(CNC2=NCCS2)cc1	2.3	·
C[C@]12C=CC(=O)C=C1CCC1C2CC[C@]2(C)C(=O)CCC12 (some centres undefined)	0.9	0.2
COc1cc2c(cc1O)CCNC2C (centres undefined)	-4.3	-0.6
CCN1C(=O)NC(=O)/C(=C\c2cn(CC(=O)N3CCCC3)c3ccccc23)C1=O	1.7	·
CCC1(C)CC(=O)NC(=O)C1	-3.3	-0.5
CC(=O)OCC(=O)[C@H]1CC[C@H]2[C@@H]3CC[C@H]4C[C@H](O)CC[C@]4(C)[C@H]3C(=O)C[C@]12C	-4.2	0.4
Cc1oc(-c2cccs2)nc1CSCC(=O)N1CCC2(CC1)OCCO2	6.3	·
C=C(C)C1Cc2c(ccc3c(=O)c4c(oc23)COc2cc(OC)c(OC)cc2-4)O1 (centres undefined)	-4.3	0.3
COc1cc(O)c(C(=O)O)c(-c2cc(O)c(O)cc2C)c1	0.4	0.0
O=C(CCN1CCOCC1)NC=Nc1cccnc1	-1.0	0.9
COc1cc([C@@H]2c3cc4c(cc3[C@@H](O)C3COC(=O)C32)OCO4)cc(OC)c1O (some centres undefined)	50*	3.0
CCNc1nc(Cl)nc(NC(C)C)n1	4.2	0.2
CN1C2C=C(N(C(=O)c3ccc(Cl)cc3)c3ccccc3)CC1CC2 (centres undefined)	0.7	2.0
CN1[C@@H]2CC[C@H]1CC(OC(=O)C1C=Nc3ccccc31)C2 (some centres undefined)	-0.9	0.5
Cc1ccc2c(c1)N(C(=O)CCC(=O)N1CCC3(CC1)OCCO3)CC(C)O2 (centres undefined)	2.2	0.1
Cc1ncsc1CCCl	1.3	-0.7
CC[C@H]1CN2CCC1C[C@H]2[C@H](O)c1ccnc2ccc(OC)cc12 (some centres undefined)	-3.2	0.3
C=C(C)c1cc2cc(C(C)=O)c(O)cc2o1	-1.0	-6.8
O=C(O)c1nn(Cc2ccc(Cl)c(Cl)c2)c2ccccc12	9.6	0.0
N#C/C(=C\c1ccc(O)cc1)C(=O)O	3.3	-0.4
CCCN1CCC[C@@H]2Cc3nc(N)ncc3C[C@H]21	-5.5	0.8
C[C@@H]1O[C@@H](O[C@H]2[C@H](O)[C@@H](O)[C@H](O[C@@H]3C=C4CC[C@@H]5C(CC[C@]6(C)[C@@H](c7ccc(=O)oc7)CC[C@]56O)[C@@]4(C)CC3)O[C@@H]2CO)[C@H](O)[C@H](O)[C@H]1O (some centres undefined)	125*	1.5
CN(C)C(=O)Oc1cccc(N)c1	0.2	1.4
CC(C)=CC1C(C(=O)OCc2coc(Cc3ccccc3)c2)C1(C)C (centres undefined)	0.7	-0.4
CCCN1CCc2cccc3c2[C@H]1Cc1ccc(O)c(O)c1-3	-6.4	-0.8
COc1cc2c(c(OC)c1OC)-c1cc3c(cc1[C@H](OC(C)=O)[C@H]1COC(=O)[C@@H]1C2)OCO3	60*	2.6
C[C@H]1OC(O[C@H]2[C@@H](O)CC(O[C@H]3[C@@H](O)C[C@H](O[C@H]4CC[C@]5(C)C6CC[C@]7(C)[C@@H](C8=CC(=O)OC8)[C@@H](O)C[C@]7(O)[C@@H]6CC[C@@H]5C4)O[C@@H]3C)O[C@@H]2C)C[C@H](O)C1O (some centres undefined)	98*	0.0
COc1cc2c(cc1OC)[C@@]13CCN4CC5=CCOC6CC(=O)N2C1[C@H]6[C@H]5C[C@H]43 (some centres undefined)	0.8	-0.3
Cc1c(O)c(C(=O)O)c(O)c2c1[C@H](C)[C@@H](C)OC2=O	-5.6	-0.9
CC(=O)OC[C@]12CCC(C)=C[C@H]1O[C@@H]1[C@H](O)[C@@H](OC(C)=O)[C@@]2(C)[C@]12CO2	122*	16*
c1ccc(CCCN2CCN(CCOC(c3ccccc3)c3ccccc3)CC2)cc1	-3.8	-0.2
CCC1C(c2ccccc2)NC(c2ccccc2)CC1(O)c1ccc(F)cc1 (centres undefined)	3.1	0.1

(further entries)
SMILES	BJeLR viability	A1 inhib
Cc1[nH]c2ccccc2c1CCN	-16	-0.1
CSc1nc(-c2ccc(Cl)cc2)nn1C(=O)N(C)C	-2.2	-0.5
O=c1cccc2n1C[C@H]1CNCC2C1	2.9	0.1
CN(C)C(=O)Oc1cc(OC(=O)N(C)C)cc(C(O)CNC(C)(C)C)c1 (centres undefined)	6.5	0.0
CC1=C2C[C@H]3[C@@H](CC=C4C[C@@H](O)CC[C@@]43C)[C@@H]2CC[C@]12O[C@@H]1C[C@H](C)CN[C@H]1[C@H]2C	4.6	-0.3
O=C(CCCN1CCC2(CC1)C(=O)N(Cc1cccc(F)c1)CN2c1ccccc1)c1ccc(F)cc1	2.7	1.5
CN1CCC2=C[C@H](O)[C@H]3OC(=O)c4cc5c(cc4[C@H]3[C@@H]21)OCO5	-9.5	-0.1
CC1(C)COC(Nc2cccc(Cl)c2)=N1	8.1	0.5
CCCCN1CCC(C#N)(Nc2ccccc2)CC1	-0.9	0.9
COc1ccc2c3c([nH]c2c1)C(C)=NCC3	-0.7&2.0	0.2&-0.8
CCOC(=O)C1=C(CN2CC=C(c3ccccc3)CC2)NC(=O)NC1c1ccc(OC)cc1 (centres undefined)	-2.6	0.0
CC(C)=CC1C(C(=O)OCc2cccc(Oc3ccccc3)c2)C1(C)C (centres undefined)	-2.5	0.7
CN1C[C@@H](NS(=O)(=O)N(C)C)C[C@@H]2c3cccc4c3c(cn4C)C[C@H]21	-3.4	-0.7
O=C(O)COc1cc(Cl)c(Cl)cc1Cl	-3.8	-0.8
C=C(CO)C(=O)O[C@H]1CC(=C)[C@@H]2C[C@H](O)C(=C)[C@@H]2[C@H]2OC(=O)C(=C)[C@@H]21	7.1	1.1
Cc1ccc(-c2nc(Cn3cc(C=C4C(=O)N(C)C(=O)N(C)C4=O)c4ccccc43)no2)cc1	-2.1	·
Nc1ccc(Sc2ccc(N)cc2)cc1	3.4	-0.1
Oc1ccc2c3c1OC1[C@@H](O)CC[C@@]4(O)[C@@H](C2)N(CC2CCC2)CC[C@]314 (some centres undefined)	16	0.0
COc1cc2c(cc1OC)[C@@]13CCN4CC5=CCO[C@H]6CC(=O)N2[C@H]1[C@H]6[C@H]5C[C@H]43	4.3	0.5
CC1=C[C@H]2[C@]3(O)[C@H](C)[C@@H](O)[C@@]4(O)[C@H]([C@@H]3C=C(CO)C[C@]2(O)C1=O)C4(C)C	-11	0.7
OC(c1ccccc1)(c1ccccc1)C1CCNCC1	1.4	0.0
CO[C@H]1[C@H](O)[C@H](O[C@H]2CC[C@]3(C)C4CC[C@]5(C)C(C6=CC(=O)OC6)CC[C@]5(O)C4CC[C@@H]3C2)O[C@@H](C)[C@@H]1O (some centres undefined)	111*	0.7
CC(C)NCC(O)c1ccc(N)c(C#N)c1 (centres undefined)	-5.5	0.8
CC1(C)C(C(=O)Nc2nccs2)C1(C)C	-3.6	0.1
COc1cc2ccc(=O)oc2c2ccoc12	-2.2	0.5
CN(Cc1ccccc1)C(=O)CN1CCCC1=O	1.5	-0.6
CCCCCCCCCCCCCC(=O)O[C@@H]1[C@@H](C)[C@@]2(O)[C@@H](C=C(CO)C[C@]3(O)C(=O)C(C)=C[C@@H]23)[C@@H]2C(C)(C)[C@]12OC(C)=O	4.2	-1.1
N#CC(c1ccccc1)c1ccccc1	-5.9	-0.2
CN1CC(C(=O)N[C@]2(C)O[C@@]3(O)[C@@H]4CCCN4C(=O)[C@H](Cc4ccccc4)N3C2=O)C=C2c3cccc4[nH]cc(c34)C[C@H]21 (some centres undefined)	-1.5	-0.3
C=C[C@@H]1C2=CCOC(=O)C2=CO[C@H]1O[C@@H]1O[C@H](CO)[C@@H](O)[C@H](O)[C@H]1O	-2.9	0.6
CCNC(=S)N1CCn2cccc2C1c1cccnc1 (centres undefined)	7.1	-0.4

Retrieved by compound from the entries so far, two records:
SMILES	BJeLR viability	A1 inhib
CC(=O)OCC(=O)[C@H]1CC[C@H]2[C@@H]3CC[C@H]4C[C@H](O)CC[C@]4(C)[C@H]3C(=O)C[C@]12C	-4.2	0.4
CN1CCN(c2ccc3ccccc3n2)CC1	6.0	-0.9

This is a subset; count on the stated rates, not on these rows.
